Source: PubChem
Rango release inh = qHTS Assay for Inhibitors of RanGTP induced Rango (Ran-regulated importin-beta cargo) - Importin beta complex dissociation; AID 540253, 2011; Potency, µM (top dose mostly 46.1 µM), without a hit: at the highest dose activity change, negative = inhibition; Biochemical FRET Rango-importin beta, RanGTP-induced dissociation; 340,000 compounds, 0.071% hits; Snurportin-1 (Homo sapiens) + GTP-binding nuclear protein Ran (Homo sapiens) + Importin …; active means falling FRET ratio curve, often poorly fitted, with flat reads before Ran was added; inconclusive means other falling curves, or compound fluorescence or quenching; inactive means flat or rising ratio curve;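 further: potency means the concentration at half of the fitted maximal effect; % of control where 0% means no effect; nearly all actives have a fitted effect of over 45% in size; -100% = wells without RanGTP and RCC1; the record marks most hits as doubtful in a second field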
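Quantitative HTS using a FRET biosensor: 0.1 uM Rango, 0.25 uM importin beta, 0.6 uM Ran, 2 mM GTP, 0.2 uM RCC1 final, PBS with DTT, Tween-20 and BSA. Post-read taken 45 min after Ran addition.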
Rango complex inh = qHTS Assay for Inhibitors of Rango (Ran-regulated importin-beta cargo) - Importin beta complex formation; Importin subunit beta-1 (Homo sapiens), Q14974; Rango CFP/YFP FRET sensor + importin beta, 45 min; Potency, µM (highest dose often 92.2 µM), for inactives: top-dose inhibition of complex formation; 340,000 compounds, 0.031% hits; active = rising FRET ratio curve, often small or poorly fitted; inconclusive = mostly compound fluorescence or quenching in the first reads; inactive = flat curves in all reads;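 further: potency means the concentration at half of the fitted maximal effect; 0% = DMSO wells and 100% = buffer wells lacking importin beta; nearly all actives have a fitted effect of over 15% in size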
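FRET biosensor Rango (snurportin 1 IBB between N-terminal EYFP and C-terminal Cerulean), 50 nM in PBS/1 mM DTT/0.02% Tween-20/0.1% BSA, preincubated 5 min RT with compound; 0.125 microM importin beta added, 45 min RT, CFP/YFP FRET ratio read.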
GLA inh pH 4.5 = qHTS Assay for Inhibitors of Human alpha-Galactosidase at pH 4.5; Alpha-galactosidase A (Homo sapiens), P06280; purified enzyme, 4-MU-alpha-Gal fluorescence, pH 4.5; activity change, negative = inhibition, % at 105 µM; 230,000 tested, under 10 active; AID 1467, 2008; inconclusive = small, poorly fitted or top-dose-only inhibition, or a rising curve; inactive = flat fitted curve, though single readings scatter; no compound was filed as active;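 further: 0% = full activity with enzyme and -100% = basal without enzyme; dose as in the result columns while the protocol names 77 µM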
Target sequence (P06280 whole entry, looked up): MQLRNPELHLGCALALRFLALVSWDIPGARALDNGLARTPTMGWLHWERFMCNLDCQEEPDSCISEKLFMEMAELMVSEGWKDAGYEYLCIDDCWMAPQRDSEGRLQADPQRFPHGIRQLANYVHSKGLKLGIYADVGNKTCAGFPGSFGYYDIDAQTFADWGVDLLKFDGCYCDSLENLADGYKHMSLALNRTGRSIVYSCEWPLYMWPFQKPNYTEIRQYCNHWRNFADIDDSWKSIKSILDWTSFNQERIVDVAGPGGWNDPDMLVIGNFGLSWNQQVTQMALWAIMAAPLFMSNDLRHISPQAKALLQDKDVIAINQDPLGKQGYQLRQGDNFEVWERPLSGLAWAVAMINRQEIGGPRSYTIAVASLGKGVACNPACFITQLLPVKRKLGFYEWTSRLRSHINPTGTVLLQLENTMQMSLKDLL
miR-21 reporter = qHTS Assay for Modulators of miRNAs and/orActivators of miR-21 | HeLa miR-21 FLuc reporter, luciferase, 48 h | Potency, µM (series often up to 38.3 µM), for the others: top-dose reporter change, positive = more light | 340,000 tested, under 10 active | AID 2288, 2010; active = well fitted rising curve with a large enough effect; inconclusive = small, poorly fitted or top-dose-only effect; inactive = no such curve, though single readings can be large or run the other way;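 further: % of control where 0% means no effect; miR-21 action dims this reporter so a rising signal means less miR-21 action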
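HeLa miR-21-FLuc reporter line, endogenous miR-21; 2000 cells/well in DMEM/10% FBS; compound titration up to ~40uM final, 48 h, 37 degree Celsius; luciferase detection reagent, 15 min lysis, CCD luminescence.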
* marks the source's active call; other numbers are inactive results; u = inconclusive; x = no result given; & = joins results of further samples; [ ] = another dose, or the depositor's remark.

Results follow in this order: Rango release inh	Rango complex inh	GLA inh pH 4.5	miR-21 reporter
Cc1cc(NCCN2CCOCC2)n2nc(C)c(-c3ccc(Cl)cc3)c2n1
 : 3%	-3.5%	1	1%
CC(NC(=O)C12CC3CC(CC(C3)C1)C2)c1ccc2c(c1)OCCO2 (stereo not given)
 : 4%	-4.8%	-1	-4%
Cc1ccc(NC(=O)CSc2nnc(CNC(=O)c3cccs3)o2)cc1
 : 19%	-1.2%	-12	-2%
O=C(c1cccc(N2C(=O)C3C4C=CC(C4)C3C2=O)c1)N1CCN(c2ccccc2)CC1 (stereo not given)
 : -26%	2.9%	-3	0%
CCOC(=O)c1ccccc1NC(=O)CN(c1ccccc1C)S(C)(=O)=O
 : 1%	-2.2%	6	-6%
Cc1cc(NC(=O)CSc2nc3c(C)ccc(C)c3cc2C#N)no1
 : -7%	3.9%	x	3%
O=C(CCNS(=O)(=O)c1ccccc1)OCC(=O)c1ccc(Br)cc1
 : -10%	-1.2%	x	x
Cc1c(C(=O)NNC(=O)c2ccncc2)oc2ccccc12
 : -17%	-1.6%	x	x
NC(=O)CC(NC(=O)c1ccc(Br)cc1)c1ccc(NCc2ccc(F)c(F)c2)c([N+](=O)[O-])c1 (stereo not given)
 : 29%	3.9%	-1	-5%
O=C(c1ccccc1)N1CCCN(c2nccc(C(F)(F)F)n2)CC1
 : 3%	-2.7%	-9	-4%
CN1CCN(C2=CC(=O)OC23CCCCC3)CC1
 : 2%	0.1%	-15	-3%
Cc1ccc(C)c(NC(=S)NCc2ccc3c(c2)OCO3)c1
 : 2%	-4.4%	-6	0%
COc1ccc(O)c(C(=O)C2c3ccccc3C(=O)N2c2ccc(C)cc2)c1 (stereo not given)
 : u	u	-12	-57%
Cc1ccc(S(=O)(=O)Nc2cc(=O)[nH]c3c2CCC3)cc1
 : 14%	0.7%	-5	-7%
O=C(Cn1c(=O)cnc2ccccc21)Nc1cccc(S(=O)(=O)N2CCOCC2)c1
 : 2%	1.9%	x	x
Cc1cc(NC(=O)COc2ccccc2C)no1
 : -1%	5.2%	-1	-44%
CCCCC1=CC2=C(c3ccco3)C(=O)C(C)(OC(=O)c3ccc(OC)cc3)C(=O)C2=CN1Cc1ccc2c(c1)OCO2 (stereo not given)
 : -21%	u	-6&-10	-1%
COc1ccc(-c2cc([C@H]3[C@H]4C=CC[C@@H](C)[C@@H]4C(=O)N3Cc3ccccc3)ccc2F)cc1
 : -13%	-0.3%	-4	5%
Cc1nnc(NC(=O)c2ccc(S(=O)(=O)N3CCCCCC3)cc2)o1
 : 9%	-1.4%	2	-1%
COc1ccc(Oc2nc(SC)nc3ccsc23)cc1
 : -4%	-3.8%	-8	14%
O=C(COc1ccc(C(=O)c2ccccc2)cc1)NC1CCCCCC1
 : 8%	-0.5%	-8	17%
Cc1c(/C=N/N2C(=O)C3C4C=CC(C4)C3C2=O)c2ccccc2n1C (stereo not given)
 : 2%	-0.1%	0	-2%
Cc1noc(C)c1C(=O)N1CCC2(CC1)Oc1ccc(F)cc1C(=O)C21CC(c2ccc(Cl)cc2)=NO1 (stereo not given)
 : -18%	-1.8%	-10	7%
CCOC(=O)C1=C(C)N=C2SC(C(=O)OC)=CC(=O)N2C1c1ccc(OC)cc1 (stereo not given)
 : -5%	-2.7%	-5	-5%
c1ccc(Sc2cccc3ccccc23)c(CNC2=NCCN2)c1
 : 6%	-0.4%	-14	30%
CSc1ncc(CN2CCN(C3CCCC3)C(CCO)C2)cn1 (stereo not given)
 : 32%	-1.6%	2	0%
CCOC(=O)/C(=C/c1ccc(OC(=O)c2ccccc2)cc1)C(C)=O
 : -5%	-1.5%	-12	-12%
CN(Cc1ccc(C(F)(F)F)cc1)C(=O)C1CCC(=O)N(C2CC2)C1 (stereo not given)
 : 8%	0.8%	x	-7%
Cc1ccc(CSc2nnc(Nc3ccc(C)cc3)s2)cc1
 : 11%	0.4%	3	-4%
CC(C)CN1C(=O)c2ccc(C(=O)Nc3c[nH]c(=O)[nH]c3=O)cc2C1=O
 : 10%	0.3%	-3	0%
Cc1nc(N/C(N)=N/S(=O)(=O)c2ccccc2)nc2ccccc12
 : -10%	-3.2%	x	x
COC(=O)c1ccc(/C=N/NS(=O)(=O)c2cc(C)ccc2C)cc1
 : 6%	-1.4%	-7	-13%
O=C(Nc1ccc2c(c1)OCCO2)C1CCCN(S(=O)(=O)c2cccs2)C1 (stereo not given)
 : 6%	-1.7%	6	-3%
CCOc1nc(OCC)nc(-n2cc(-c3ccccc3)nn2)n1
 : 3%	-3.3%	6	-3%
CC(C)(C)C1CCC(CN2C(Nc3ccccc3)=NC[C@@H]2Cc2ccccc2)CC1 (stereo not given in full)
 : 9%	3.6%	x	x
COc1ccccc1S(=O)(=O)Nc1ccc(-c2nnc3n2CCCCC3)cc1
 : 2%	-0.1%	2	0%
Cc1ccc(-c2nc(SC(C)C(=O)c3c(N)n(C)c(=O)n(C)c3=O)n[nH]2)cc1 (stereo not given)
 : 24%	-2.7%	x	x
COc1ccc(-n2c(=O)cc(N3CCN(Cc4ccccc4)CC3)[nH]c2=O)cc1
 : -2%	-0.4%	-1	-4%
COc1ccc(NC(=O)NC2CCCCCCC2)cc1
 : 20%	-3.8%	x	-60%
COC(=O)c1nnn(CC(=O)NC(=O)Nc2ccccc2F)c1C(=O)OC
 : 0%	3.3%	4[21.1 µM]	1%&-3%
O=C(CSCc1ccccc1Br)N/N=C/c1ccccc1C(=O)O
 : 29%	2.8%	-8	-2%
Cc1nn(-c2ccccc2)c(C)c1C(=O)OCC(=O)N(C)C1CCS(=O)(=O)C1 (stereo not given)
 : 3%	-2.8%	-2	-34%
N#Cc1ccc(CSC2=NCCN2)cc1
 : 13%	1.2%	7	23%
Cc1cccc(NC(=O)c2ccccc2C(=O)Nc2cccc(C)c2)c1
 : 8%	-0.2%	x	x
COc1cccc(CNC(=O)CN2C(=O)COc3ccc(S(=O)(=O)N4CCOCC4)cc32)c1
 : -27%	u	x	-1%&2%
COc1ccc(CC(=O)OCC(=O)NCc2ccc3c(c2)OCO3)cc1OC
 : 4%	-1.5%	x	x
CCN1CCN(S(=O)(=O)Cc2ccccc2Cl)CC1
 : -2%	-3.4%	x	-4%
CCO[C@@H]1OC(C(=O)NC2CC2)=C[C@H](C2CC2)[C@H]1CCCO
 : -2%	-1.0%	6	-5%
COc1ccc(N2C(=O)CCC(C(=O)N3CCCCC3)C2c2ccc(OC)c(OC)c2)cc1 (stereo not given)
 : 1%	2.8%	8	-2%
COCCN1Cc2cccc(C(=O)NCCCN3CCCC3=O)c2C1=O
 : -3%	-2.5%	-1	-2%
CC(=O)Nc1ccc(CN2CCCC(CO)(Cc3ccccc3C)C2)cc1 (stereo not given)
 : -13%	-1.7%	-5	1%
COc1ccc(Cl)cc1NC(=O)CC(C)c1ccccc1 (stereo not given)
 : 18%	0.6%	u	-4%
Cn1ccnc1C1CCCCN1Cc1nc(Cc2cccc(C(F)(F)F)c2)no1 (stereo not given)
 : 8%	3.3%	2	6%
C/C(=N\OCc1ccc(C#N)cc1)c1ccccc1
 : -12%	-0.2%	-1	-51%
CC(Sc1nnc2c(n1)C1(C)CCC2C1(C)C)C(=O)Nc1ccccc1 (stereo not given)
 : -3%	0.5%	2	6%
O=C(O)c1ccc(CS(=O)(=O)c2ccc(Br)cc2)cc1
 : -1%	-1.0%	x	0%
Cn1c(C(=O)N2CCCC(C(=O)NCCN3CCOCC3)C2)cc2sccc21 (stereo not given)
 : -1%	-0.4%	-6	1%
COc1cc(-c2nc(C(F)(F)F)c(OC)o2)cc(OC)c1OC
 : -5%	-2.0%	6	-1%
COc1ccc(-n2nc(C(=O)NCC(=O)N3CC(C)CC(C)C3)c3ccccc3c2=O)c(OC)c1 (stereo not given)
 : u	0.9%	x	0%
Cc1ccc(-c2nc3ncccc3o2)cc1NC(=O)c1ccc2c(c1)OCO2
 : 0%	-0.1%	x	x

Further compounds follow.
Results follow in this order: Rango release inh	Rango complex inh	GLA inh pH 4.5	miR-21 reporter
Cc1cc([N+](=O)[O-])nn1CCCC(=O)Nc1sc2c(c1C(N)=O)CCC(C)C2 (stereo not given)
 : 24%	0.7%	4	-7%
O=C(CCCOc1ccccc1)NNC(=O)c1ccc(Cl)cc1
 : 16%	-6.5%	x	x
CCN(CC(=O)NCc1cccs1)C(=O)CCCOc1ccc(C(C)(C)C)cc1
 : 1%	4.3%	x	x
CCOC(=O)C(Cc1ccccc1)NC(=O)CNC(=O)CNC(=O)OCc1ccccc1 (stereo not given)
 : 7%	0.5%	-10	-6%
CCCCN(C)S(=O)(=O)c1cc2c(cc1Br)CCN2C(=O)C1CC1
 : 0%	5.2%	x	x
Cc1ccc(NS(=O)(=O)c2cc3[nH]c(=O)c(=O)[nH]c3cc2C)c(C)c1
 : -3%	-5.8%	x	-3%
Cc1ccc(-c2cc(C(=O)N/N=C/c3ccco3)[nH]n2)cc1
 : -4%	-0.8%	-1	-21%
O=C(O)Cc1ccc(NC(=O)COc2ccc3ccccc3c2)cc1
 : -1%	4.8%	x	-5%
CCN1CCN(C(=O)Cn2ncc3c2-c2ccccc2OC3)CC1
 : 23%	-2.8%	3	-5%
CCN1C(=O)C(=O)N(Cc2ccc(OC)c(F)c2)C1=O
 : -1%	1.6%	x	-10%
Cc1cc(C)n2nc(SCC(=O)N(CCC#N)c3ccccc3F)nc2n1
 : -1%	2.8%	x	x
COc1c(F)c(F)c(C(=O)Nc2ccc(N3CCN(C(C)=O)CC3)c(Cl)c2)c(F)c1F
 : -8%	-0.6%	-1	20%
CCC1(C)Cc2c(C#N)c(SC)nc(N3CCOCC3)c2CO1 (stereo not given)
 : -1%	1.2%	x	x
Cc1cc(C(C)(C)C)oc1C(=O)NCCCNC(=O)c1oc(C(C)(C)C)cc1C
 : 4%	-4.6%	-5	-7%
Cc1csc(Nc2cccc3ccccc23)n1
 : -11%	-0.7%	-2	-32%
O=C1C2C(c3ccccc3)C=CC(c3ccccc3)C2C(=O)N1CCCO (stereo not given)
 : -15%	-1.0%	-4	7%
C=C(C)c1cccc(C(C)(C)NC(=O)N2CCN(c3ncccn3)CC2)c1
 : -3%	0.9%	x	x
Cn1c(=O)c(=O)n(C)c2cc(S(=O)(=O)N3CCCC3C(=O)NCc3ccco3)ccc21 (stereo not given)
 : 4%	2.1%	0	12%
O=C(COC(=O)c1ccc(S(=O)(=O)N2CCCCC2)cc1)NCc1ccco1
 : 2%	0.5%	2	-2%
CN(C)CCC(=O)c1ccc(Cl)cc1
 : 9%	-1.5%	6	-11%

The list is partial; the hit share may differ from the screen's.
